PD-1 reversal = activators reversing PD-1 mediated T-cell inhibition; primary human CD4 T cells, PD-L1 beads, CellTiter-Glo 96 h; activation, % (concentration not given with the values); 29,000 tested, under 10 active;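 active = replicate mean of 50% or more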;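 note: 0% = median vehicle wells and 100% = positive control; 100 nL library stock added to about 50 µL; numbers are from one replicate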
MITF inhib = blocks MITF activity | TRPM1 promoter luciferase, luminescence, 24 h | 37,000 tested, 0.28% active | inhibition, % (test concentration not listed);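 active = most replicates at 85% or more, or half of them and the mean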;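 note: human melanocyte line stably carrying TRPM1 promoter luciferase reporter; 0% = vehicle wells and 100% = a positive control; the first replicate is given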
Shh pathway inh = blocks Sonic Hedgehog signaling; Shh-LIGHT2 Gli-luciferase reporter, 30 h; inhibition, % (no concentration beside the values); 22,000 tested, 2.1% active; AID 2313;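 active = replicate mean of 65% or more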;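 note: pathway switched on by Shh-conditioned medium diluted 1 in 25 in low serum; 100 nL library stock added to about 40 µL; 0% = median of neutral wells and 100% = positive control level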
YB-1 expr inh = YB-1 expression inhibition; U2OS, qRT-PCR YB-1 vs CDIP delta delta Cp, 16 h; hits give high values; zero = DMSO, each unit about twofold; delta delta Cp (YB-1 minus CDIP) (test concentration not listed); 30,000 tested, 0.37% active; AID 434959;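 active = delta delta Cp rounded down to an integer at or above 3, about 3 SD of DMSO wells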;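 note: higher means less YB-1 transcript or more CDIP transcript relative to DMSO; stock transfer was 100 nL into about 100 µL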
Active calls of the source: *; / = not tested or not shown. Not all compounds are listed; the hit share may differ from the screen's.

Value order – PD-1 reversal	MITF inhib	Shh pathway inh	YB-1 expr inh
Cc1noc(C)c1S(=O)(=O)Nc1ccc2c(c1)C(=O)N([C@H](C)CO)C[C@@H](C)[C@H](CN(C)S(=O)(=O)c1ccccc1)O2
    -2.1	5	/	0.33
COC(=O)C1=CO[C@@H](O[C@@H]2O[C@H](CO)[C@@H](O)[C@H](O)[C@H]2O)[C@@H]2[C@@H](CO)C=C[C@H]12
    0.5	-7	15	0.25
C[C@H](CO)N1C[C@H](C)[C@H](CN(C)C)Oc2ccc(NS(=O)(=O)c3ccc(F)cc3)cc2C1=O
    /	2	/	1.7
COc1ccc(NC(=O)Nc2cccc3c2O[C@@H](CN(C)C(=O)Nc2c(C)noc2C)[C@H](C)CN([C@@H](C)CO)C3=O)cc1
    0.5	-7	-40	0.17
C[C@@H]1CCCCO[C@@H](CN(C)C(=O)Nc2ccccc2)[C@@H](C)CN([C@H](C)CO)C(=O)c2cc(NC(=O)CCC(F)(F)F)ccc2O1
    -0.2	-9	/	-0.41
Cc1noc(C)c1NC(=O)Nc1ccc2c(c1)CC(=O)N([C@@H](C)CO)C[C@@H](C)[C@@H](CN(C)C(=O)Nc1cccc3ccccc13)O2
    /	-1	/	0.29
Cc1cc(O)c(C(=O)/C=C/N(C)C)c(=O)o1
    1.5	18	31	0.13
COc1ccc(CN(C)C[C@@H]2Oc3ccc(NC(=O)Nc4ccccc4)cc3C(=O)N([C@H](C)CO)C[C@H]2C)cc1
    /	0	-14	0.31
C[C@@H]1CN([C@@H](C)CO)C(=O)c2cc(NC(=O)CCC(F)(F)F)ccc2O[C@H]1CN(C)S(C)(=O)=O
    1.0	-6	-11	0.1
C[C@@H]1CN([C@H](C)CO)C(=O)c2cccc(NS(=O)(=O)c3ccc(Cl)cc3)c2O[C@@H]1CN(C)Cc1ccc(C(=O)Nc2ccccc2N)cc1
    -3.1	0	/	0.13
COc1ccc(NC(=O)N(C)C[C@H]2Oc3ccc(NC(=O)CCCCCC(=O)Nc4ccccc4N)cc3CC(=O)N([C@@H](C)CO)C[C@H]2C)cc1
    -2.3	-5	/	-0.54
Cc1noc(C)c1NC(=O)N(C)C[C@H]1Oc2c(NC(=O)Nc3ccc(C(F)(F)F)cc3)cccc2C(=O)N([C@@H](C)CO)C[C@H]1C
    /	-7	-51	0.27
C[C@@H]1CN([C@H](C)CO)C(=O)Cc2cc(NS(=O)(=O)c3ccccc3)ccc2O[C@@H]1CN(C)S(=O)(=O)c1ccccc1
    -0.8	-7	3	-0.11
Cc1noc(C)c1NC(=O)Nc1ccc2c(c1)C(=O)N([C@H](C)CO)C[C@H](C)[C@@H](CN(C)C(=O)Nc1ccc3c(c1)OCO3)OCCCC[C@@H](C)O2
    -0.2	0	/	-0.28
C[C@H]1CN([C@@H](C)CO)C(=O)Cc2cc(NC(=O)Cn3cnnn3)ccc2O[C@H]1CN(C)CC1CCCCC1
    3.5	18	-13	-0.26
C[C@@H]1CN([C@@H](C)CO)C(=O)c2cccc(NC(=O)CCCCCC(=O)Nc3ccccc3N)c2O[C@@H]1CN(C)C(=O)Nc1cccc2ccccc12
    0.0	8	/	-0.34
CC(=O)N[C@H]1[C@H](O[C@@H]2[C@@H](O)[C@H](C)O[C@@H](Oc3ccc4c(=O)c(-c5ccc(O)cc5)coc4c3)[C@@H]2O)O[C@H](CO)[C@@H](O[C@@H]2O[C@@H](C)[C@H](O)[C@@H](O)[C@H]2O)[C@@H]1O
    -0.5	-11	16	-0.089
C[C@@H]1CN([C@@H](C)CO)C(=O)Cc2cc(N(C)C)ccc2O[C@@H]1CN(C)Cc1ccc(C(F)(F)F)cc1
    -2.3	-17	-31	0.2
COc1ccc(S(=O)(=O)Nc2cccc3c2O[C@@H](CN(C)CC2CCCCC2)[C@@H](C)CN([C@H](C)CO)C3=O)cc1
    -0.1	2	71*	-0.54
O=C(NCc1ccco1)C1OCCc2ccccc21 (centres undefined)
    -1.9	-7	/	/
OC(COc1ccc2ccccc2c1Br)Cn1ccnc1 (centres undefined)
    1.0	-2	/	/
COc1ccc(OC)c(NC(=O)c2c(NC(=O)CN3CCOCC3)sc3c2CCC3)c1
    -4.4	8	/	/
COc1cc(C)c(C(C)C)cc1S(=O)(=O)NC1CC(C)(C)NC(C)(C)C1
    -0.5	-8	/	/
COc1ccc(NC(=O)Nc2ccc3c(c2)C(=O)N([C@H](C)CO)C[C@@H](C)[C@H](CN(C)C(=O)Nc2ccccc2)O3)cc1
    0.5	-3	-6	0.014
O=C(O)/C=C/C=C/c1ccccc1
    /	1	8	-0.19
CC(CC(N)=O)OC(=O)c1cc(Cl)cc(O)c1O (centres undefined)
    0.8	27	-10	0.4
C[C@H]1CN([C@@H](C)CO)C(=O)c2cccc(NS(=O)(=O)c3cccs3)c2O[C@H]1CN(C)Cc1ccc2c(c1)OCO2
    -0.1	1	29	-0.12
CNC[C@@H]1Oc2c(NS(=O)(=O)c3ccc(F)cc3)cccc2C(=O)N([C@@H](C)CO)C[C@@H]1C
    2.3	0	64	-0.75
Cc1ccc(S(=O)(=O)N(C)C[C@H]2Oc3ccc(NS(=O)(=O)c4cn(C)cn4)cc3C(=O)N([C@@H](C)CO)C[C@H]2C)cc1
    /	-1	/	-0.14
O=C(Cn1cc(Br)c([N+](=O)[O-])n1)Nc1ccccc1F
    -0.4	5	/	/
O=C(CSc1nnc(-c2ccc([N+](=O)[O-])cc2)n1-c1ccccc1)Nc1ccc(Cl)cc1
    0.2	-21	/	/
C[C@H](CO)N1C[C@H](C)[C@@H](CN(C)Cc2ccc(C(=O)Nc3ccccc3N)cc2)Oc2ccc(NC(=O)C3CC3)cc2C1=O
    -0.5	4	/	-0.93
C[C@@H]1CN([C@@H](C)CO)C(=O)c2cc(NC(=O)CCN3CCOCC3)ccc2O[C@@H]1CN(C)C(=O)Nc1ccccc1
    /	-5	/	0.039
C[C@@H]1CN([C@H](C)CO)C(=O)c2cc(NC(=O)Nc3ccc(F)cc3)ccc2O[C@H]1CN(C)C(=O)Nc1cccc2ccccc12
    -2.1	-11	-6	-0.44
CC1(C)CC(=O)c2c(SCCOC(=O)c3ccccc3Cl)sc(C#N)c2C1
    -0.2	-2	7	0.034
Cc1ccccc1-c1nnc(SCC(=O)Nc2cccc(Br)c2)n1C
    0.7	36	/	/
C[C@H](CO)N1C[C@H](C)[C@@H](CN(C)S(=O)(=O)c2ccc(F)cc2)Oc2c(NS(=O)(=O)c3cccs3)cccc2C1=O
    3.0	-8	12	-0.38
Cc1ccc(S(=O)(=O)N(C)C[C@@H]2Oc3c(NC(=O)C4CCOCC4)cccc3C(=O)N([C@@H](C)CO)C[C@H]2C)cc1
    /	-6	3	-0.44
COc1cc(Cl)c(C)cc1NC(=O)CN(C)S(=O)(=O)c1ccc(Br)cc1
    0.9	1	/	/
Cc1ccc(S(=O)(=O)N(C)C[C@@H]2Oc3ccc(NC(=O)Nc4ccc5c(c4)OCO5)cc3CC(=O)N([C@H](C)CO)C[C@@H]2C)cc1
    -0.1	36	-21	0.22
Cc1noc(C)c1NC(=O)N(C)C[C@@H]1Oc2ccc(NC(=O)Nc3ccccc3)cc2C(=O)N([C@@H](C)CO)C[C@H]1C
    /	-5	-8	-0.036
C[C@H](CO)N1C[C@H](C)[C@H](CN(C)S(=O)(=O)c2ccc(Cl)cc2)Oc2c(NC(=O)Nc3ccc(C(F)(F)F)cc3)cccc2C1=O
    -3.1	10	100*	0.011
COC(=O)c1sc(SC)c(C#N)c1-c1ccco1
    0.1	-12	/	-0.25
C[C@@H]1CN([C@H](C)CO)C(=O)c2cccc(NC(=O)c3ccncc3)c2O[C@H]1CN(C)CC1CC1
    -0.7	6	-19	0.03
Cc1noc(C)c1S(=O)(=O)Nc1ccc2c(c1)C(=O)N([C@@H](C)CO)C[C@H](C)[C@@H](CN(C)Cc1ccc(Oc3ccccc3)cc1)O2
    -2.6	-2	16	-0.26

Continued:
Compound | PD-1 reversal | MITF inhib | Shh pathway inh | YB-1 expr inh
CNC[C@@H]1Oc2ccc(NC(=O)Cn3cnnn3)cc2C(=O)N([C@H](C)CO)C[C@H]1C | 0.9 | -5 | -13 | 0.37
COc1ccc(NC(=O)Nc2ccc3c(c2)C(=O)N([C@H](C)CO)C[C@H](C)[C@H](CN(C)CC2CCCCC2)OCCCC[C@@H](C)O3)cc1 | -0.7 | -1 | / | -0.44
CCn1c2ccccc2c2cc(NC(=O)CN(C)S(=O)(=O)c3ccc(Cl)cc3)ccc21 | 0.5 | 19 | / | /
CCN(CC)S(=O)(=O)c1ccc(Cl)c(C(=O)Oc2ccc(C)c(C)c2)c1 | 2.2 | 1 | -31 | 9.1*
Cc1noc(C)c1NC(=O)Nc1ccc2c(c1)C(=O)N([C@@H](C)CO)C[C@H](C)[C@H](CN(C)C(=O)Nc1ccc(F)cc1)O2 | 1.5 | -6 | -13 | 0.072
C[C@H]1CN([C@@H](C)CO)C(=O)Cc2cc(NC(=O)CCN3CCOCC3)ccc2O[C@H]1CN(C)C(=O)Nc1ccc2c(c1)OCO2 | 3.2 | -10 | -20 | 0.53
O=C(CSc1nnc(-c2ccco2)n1-c1ccccc1)c1ccc(F)cc1 | 1.8 | -4 | / | /
COc1cc2nc(N3CCN(C(=O)C4CCCO4)CC3)nc(N)c2cc1OC (centres undefined) | / | -2 | -4 | 0.32
COc1c(C(=O)O)ccc2c1CCC(C)(C)O2 | / | 2 | -15 | -0.028
C[C@H](CO)N1C[C@H](C)[C@H](CN(C)Cc2ccc3c(c2)OCO3)Oc2c(NS(C)(=O)=O)cccc2C1=O | / | -3 | 14 | 0.041
C[C@@H]1CCCCO[C@H](CN(C)Cc2ccc3c(c2)OCO3)[C@@H](C)CN([C@H](C)CO)C(=O)c2cc(NC(=O)C3CCCCC3)ccc2O1 | / | 4 | -2 | 0.014
C[C@@H]1CN([C@@H](C)CO)C(=O)c2cccc(NC(=O)C3CCCCC3)c2O[C@@H]1CN(C)C(=O)NC1CCCCC1 | -0.8 | 4 | -40 | 0.34
CNC[C@@H]1Oc2ccc(NC(=O)Nc3c(C)noc3C)cc2CC(=O)N([C@H](C)CO)C[C@@H]1C | 3.8 | -14 | 36 | 0.4
C[C@@H]1CN([C@@H](C)CO)C(=O)c2cc(NS(=O)(=O)c3cn(C)cn3)ccc2O[C@H]1CN(C)Cc1ccc(C(F)(F)F)cc1 | -0.3 | -7 | / | -0.029
O=C(Oc1ccc(-c2ccccc2)cc1)c1ccco1 | -0.6 | -13 | / | -0.36
C[C@@H]1CCCCO[C@H](CN(C)CC2CC2)[C@@H](C)CN([C@H](C)CO)C(=O)c2cc(NC(=O)Cc3ccccc3)ccc2O1 | / | -15 | -30 | 0.076
Cc1ccc(S(=O)(=O)Nc2cccc3c2O[C@@H](CN(C)S(=O)(=O)c2cn(C)cn2)[C@@H](C)CN([C@@H](C)CO)C3=O)cc1 | 0.8 | -8 | 3 | 0.11
Cc1noc(C)c1S(=O)(=O)Nc1ccc2c(c1)CC(=O)N([C@H](C)CO)C[C@@H](C)[C@H](CN(C)S(=O)(=O)c1cn(C)cn1)O2 | 1.1 | 0 | -4 | -0.044
CC1(C)CC[C@@]2(C(=O)O)C(C1)C1=CCC3[C@@]4(C)CC[C@H](O[C@@H]5O[C@H](C(=O)O)[C@@H](O[C@@H]6OC[C@@H](O)[C@H](O)[C@H]6O)[C@H](O)[C@H]5O)C(C)(C)C4CC[C@@]3(C)[C@]1(C)C[C@H]2O (some centres undefined) | / | / | 2 | -0.61
C[C@@H]1CN([C@@H](C)CO)C(=O)c2cc(NC(=O)Nc3ccc(F)cc3)ccc2O[C@@H]1CN(C)C | 0.3 | -5 | / | 0.0072
COc1cc(NC(=O)CN(C)S(=O)(=O)c2ccc3ccccc3c2)c(OC)cc1Cl | -2.6 | 42 | / | /
O=C(Nc1ccccc1Cl)C1CC(=O)n2ncnc2N1 (centres undefined) | -0.9 | 20 | / | /
CCN(CC(=O)Nc1ccc(OC)cc1)S(=O)(=O)c1ccc(C)cc1 | 0.5 | -17 | / | /
C[C@@H]1CN([C@@H](C)CO)C(=O)Cc2cc(NS(C)(=O)=O)ccc2O[C@@H]1CN(C)CC1CCCCC1 | / | 5 | -19 | -0.03
Cc1ccc(NC(=O)CSc2nc3ccccc3c(=O)n2-c2ccccc2)c(C)c1 | -0.2 | -2 | / | /
Cc1cc(C)c(NC(=O)CSc2nnc(-c3ccccc3)n2-c2ccc(F)cc2)c(C)c1 | 1.6 | 16 | / | /

3 compounds from above, arranged by length of the SMILES, high to low.
Compound | PD-1 reversal | MITF inhib | Shh pathway inh | YB-1 expr inh
COc1cc(NC(=O)CN(C)S(=O)(=O)c2ccc3ccccc3c2)c(OC)cc1Cl | -2.6 | 42 | / | /
Cc1ccc(NC(=O)CSc2nc3ccccc3c(=O)n2-c2ccccc2)c(C)c1 | -0.2 | -2 | / | /
CCN(CC(=O)Nc1ccc(OC)cc1)S(=O)(=O)c1ccc(C)cc1 | 0.5 | -17 | / | /

Screens from PubChem.
